CtBP-E1A blk = qHTS Assay for Inhibitors of the CtBP/E1A Interaction | CtBP / adenovirus E1A interaction (AlphaScreen) | AlphaScreen GST-E1A/His-CtBP binding, 1536-well; active compounds read low; control for the full effect not named in the record | activity change, % (no concentration beside the values) | hit rate 0.49% among 340,000 | AID 651724, 2012; in the data active means activity change below about -65%; inconclusive means about -30% to -65%; inactive means above about -30%; further: on the % scale 0 is the no-effect control and ±100 the full control effect
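Steps: dispense buffer (Tris pH 8.0, NaCl 300 mM, TCEP 1 mM, BSA, Tween 20); add 5X protein mix (GST-E1A, His-CtBP, 125 nM each); pin 23 nL compound; 2 h at 37 °C, dark; add 5X beads (50 ug/mL); 1 h; read.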
D2 potentiator = Beta-Arrestin HTS for Positive Allosteric Modulators of the Human D2 Dopamine Receptor: Potentiators; potentiation, % (concentration not given with the values); AID 624464, 2012; hit rate 0.23% among 360,000; DiscoveRx D2 beta-arrestin cells, luminescence, 90 min; 100% = 57 uM dopamine signal; D(2) dopamine receptor (Homo sapiens), P14416; active = potentiation of 50% or more; inconclusive = 30% to 50%; inactive = 30% or less;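 further: compound concentration not given in the record; tested on top of an EC20 dose of dopamine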
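PathHunter D2 cells, attached overnight at 37 deg C, received compound in DMSO plus dopamine at EC20 (50 nM final) for 90 min at 37 deg C. Beta-arrestin recruitment was read as luminescence after 1 h with detection reagent at ambient temperature.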
TRPV1 potentiator = HTS Assay for Compounds that Act as Potentiators of the Vanilloid Receptor 1; TRPV1-expressing cells, Fluo-8 calcium influx, capsaicin EC20 potentiation; host cell line not named in the record; control for the full effect not named in the record; potentiation, % at 8.33 µM; hit rate 0.02% among 320,000; active means potentiation above 80%; inconclusive means 30% to 80%; inactive means below 30%; further: 0% is about no effect
Target sequence (Q8NER1 whole entry, looked up): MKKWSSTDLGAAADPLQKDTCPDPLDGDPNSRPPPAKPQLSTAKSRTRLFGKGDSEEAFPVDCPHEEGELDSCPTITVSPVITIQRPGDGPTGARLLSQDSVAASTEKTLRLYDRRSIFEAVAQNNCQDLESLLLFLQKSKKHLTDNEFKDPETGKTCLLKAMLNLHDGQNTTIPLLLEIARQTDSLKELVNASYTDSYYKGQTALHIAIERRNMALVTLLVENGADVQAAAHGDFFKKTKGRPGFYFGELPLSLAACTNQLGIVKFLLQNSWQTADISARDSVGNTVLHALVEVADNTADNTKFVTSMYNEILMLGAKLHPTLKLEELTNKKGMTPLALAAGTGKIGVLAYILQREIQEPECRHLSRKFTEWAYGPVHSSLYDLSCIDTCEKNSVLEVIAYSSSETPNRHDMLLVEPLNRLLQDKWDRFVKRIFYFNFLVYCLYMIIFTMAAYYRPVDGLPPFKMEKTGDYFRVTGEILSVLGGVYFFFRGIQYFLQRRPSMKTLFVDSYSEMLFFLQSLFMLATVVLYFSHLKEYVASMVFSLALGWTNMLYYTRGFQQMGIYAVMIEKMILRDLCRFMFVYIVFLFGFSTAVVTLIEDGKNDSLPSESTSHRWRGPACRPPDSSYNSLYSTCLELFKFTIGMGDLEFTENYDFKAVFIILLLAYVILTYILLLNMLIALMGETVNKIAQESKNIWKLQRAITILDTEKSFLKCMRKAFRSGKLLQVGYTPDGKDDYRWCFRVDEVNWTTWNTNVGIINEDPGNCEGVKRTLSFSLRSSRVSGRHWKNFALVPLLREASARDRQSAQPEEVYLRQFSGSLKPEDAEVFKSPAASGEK
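Cells expressing TRPV1 were dye-loaded with Fluo-8 and read kinetically: 10 s baseline, 3 min after compound (agonist portion), then 2 min after EC20 capsaicin (allosteric enhancer portion). Calcium-bound dye fluorescence at 480/520 nm.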
PINK1 expr mod = A Quantitative High throughput Screen to Identify Chemical Modulators of PINK1 Expression | AID 624263, 2012 | Potency, µM (titrated, usually from 76.6 µM), without a hit: at the top dose activation (PINK1 increase), usual class: activators | hit rate 0.2% among 410,000 | PINK1 immunofluorescence, high-content cytometry, 24 h; active = well fitted activation curve with a large enough effect; inconclusive = small, poorly fitted or top-dose-only effect; inactive = flat fitted curve, though single readings scatter; cell line not stated here;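 further: potency means the concentration at half of the fitted maximal effect; % of control where 0% means no effect; nearly all actives have a fitted effect of over 65% in size; a mitochondrial uncoupler was the plate control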
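Stable cell line, 250 cells/well, 12 h attachment; compounds pinned at 5 concentrations, 24 h; CCCP control. Fixed with nuclear dye, primary antibodies 12 h at 10 degrees C, secondary plus cell stain; laser-scanning cytometer read.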
Sfp inh = qHTS Assay for Inhibitors of Bacillus subtilis Sfp phosphopantetheinyl transferase (PPTase) | Biochemical Sfp PPTase activity, qHTS | Potency, µM, inactives show max response, negative = inhibition, actives largely listed as inhibitors | hit rate 3.5% among 310,000; active means well fitted inhibition curve with a large enough effect; inconclusive means small, poorly fitted or top-dose-only effect, or another doubt; inactive means no such curve, though single readings can be large or run the other way;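 further: the enzyme is Sfp with the accession as filed and its product quenches rhodamine fluorescence; potency means the concentration at half of the fitted maximal effect; 0% = enzyme reaction without inhibitor and -100% = no enzyme wells; top concentration of the series not given in the record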
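With Hepes-Na pH 7.6 buffer containing 10 mM MgCl2, Sfp (15 nM) modified BHQ-2-YbbR (12.5 uM) using rhodamine-CoA (5 uM). Two reads 30 minutes apart at 525/598 nm yielded each well's rate.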
D2 agonist = Beta-Arrestin HTS for Positive Allosteric Modulators of the Human D2 Dopamine Receptor: Agonists. D(2) dopamine receptor (Homo sapiens), P14416. DiscoveRx PathHunter D2 beta-arrestin, luminescence, 90 min; 100% = 57 uM dopamine signal. activation, % (no concentration beside the values). hit rate 0.084% among 360,000. AID 624465, 2012; in the data active = activation above about 40%; inconclusive = about 15% to 40%; inactive = below about 15%; further: compound concentration not given in the record; the text of the record calls up to 30% inactive
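DiscoveRx PathHunter D2 beta-arrestin cells (2,100/well) attached overnight, then compound-stimulated 90 min at 37 C in HBSS/10 mM HEPES/0.1% Tween-20 buffer; beta-galactosidase complementation read by luminescence after 1 h at ambient temperature. Dopamine 57 uM final (EC100) as control.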
Six1-Eya2 blk = qHTS Assay for Inhibitors of the Six1/Eya2 Interaction. Homeobox protein SIX1 (Homo sapiens) + Protein phosphatase EYA2 (Homo sapiens), …. AlphaScreen GST-Six1/His-Eya2 binding, biochemical; active compounds read low; control for the full effect not named in the record. activity change, % (concentration not given with the values). hit rate 0.56% among 360,000. AID 651725, 2012; in the data active = activity change below about -65%; inconclusive = about -30% to -65%; inactive = above about -30%; further: on the % scale 0 is the no-effect control and ±100 the full control effect
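Compounds are tested against tagged Six1 and Eya2 proteins bridged by glutathione donor and nickel acceptor beads; after a one-hour incubation at 37 °C without light, AlphaScreen emission is recorded.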
An asterisk follows results filed as active; [ ] = dose if it differs, or a comment.

How did c1cc2nnnn2nc1N1CCCCCC1 do in these assays?
CtBP-E1A blk: -4.1; D2 potentiator: 1.8; TRPV1 potentiator: -4.9; PINK1 expr mod: -0.1%; Sfp inh: 3.4%; D2 agonist: -1.3; Six1-Eya2 blk: 0.3

How did O=C(CSC1=NCCS1)NC(NC(=O)CSC1=NCCS1)c1ccccc1 do in these assays?
CtBP-E1A blk: -10.7; D2 potentiator: 2.4; TRPV1 potentiator: -0.9; PINK1 expr mod: -2.3%; Sfp inh: 18.8%; D2 agonist: -1.4; Six1-Eya2 blk: -3.6

What do the screens show for `COc1ccc(CCNC(=O)CSc2nc3c(c(=O)n(C)c(=O)n3C)n2C(C)C)cc1OC`?
CtBP-E1A blk: -12.2; D2 potentiator: -10.1; TRPV1 potentiator: 21.2; PINK1 expr mod: inconclusive; Sfp inh: 9.1%; D2 agonist: 0.2; Six1-Eya2 blk: 2.8

Results for COc1cc(OC)cc(C(=O)NC2CCCCCCC2)c1 ?
CtBP-E1A blk: 7.6; D2 potentiator: -11.8; TRPV1 potentiator: -17.8; PINK1 expr mod: 3.5%; Sfp inh: -0.8%; D2 agonist: 1.2; Six1-Eya2 blk: 1.3

What do the screens show for `O=C(/C=C/c1ccc2c(c1)OCO2)c1ccccn1`?
CtBP-E1A blk: 20.7; D2 potentiator: -1.8; TRPV1 potentiator: -19.2; PINK1 expr mod: 17.9%; Sfp inh: 31.6µM*; D2 agonist: 1.3; Six1-Eya2 blk: 4.2

How did Cc1ccc(-c2nc(-c3ccccn3)no2)cc1Cl do in these assays?
CtBP-E1A blk: 2.2; D2 potentiator: -9.8; TRPV1 potentiator: -17.0; PINK1 expr mod: 0.0%; Sfp inh: -4.4%; D2 agonist: 1.5; Six1-Eya2 blk: -5.3

What do the screens show for `CCn1c(=O)c(C(=O)Nc2nc3ccccc3[nH]2)c(O)c2ccccc21`?
CtBP-E1A blk: -6.4; D2 potentiator: 1.6; TRPV1 potentiator: -7.2; PINK1 expr mod: inconclusive; Sfp inh: 1.7%; D2 agonist: -2.4; Six1-Eya2 blk: 2.9

How did O=C(c1cccs1)N(Cc1cc2ccccc2[nH]c1=O)c1ccccc1 do in these assays?
CtBP-E1A blk: 0.3; D2 potentiator: -15.6; TRPV1 potentiator: 2.2; PINK1 expr mod: -0.2%; Sfp inh: 2.4%; D2 agonist: 0.2; Six1-Eya2 blk: -3.1

Results for CCOc1ccc(NC(=S)NNC(=O)c2ccc(Br)cc2)cc1 ?
CtBP-E1A blk: -8.2; D2 potentiator: -18.5; TRPV1 potentiator: 10.7; PINK1 expr mod: -0.7%; Sfp inh: 18.2%; D2 agonist: -9.3; Six1-Eya2 blk: 5.7

Results for CCOCCCNC(=O)C1CCN(Cc2cccc(OCc3ccccc3)c2)CC1 ?
CtBP-E1A blk: -2.6; D2 potentiator: -11.6; TRPV1 potentiator: 4.2; PINK1 expr mod: -0.8%; Sfp inh: -1.5%; D2 agonist: -1.0; Six1-Eya2 blk: -3.3

How did CC(Cc1ccco1)NC(=O)c1cccc(S(=O)(=O)N(C)C)c1 (stereo not given) do in these assays?
CtBP-E1A blk: 5.5; D2 potentiator: -4.4; TRPV1 potentiator: 19.2; PINK1 expr mod: -0.3%; Sfp inh: -14.3%; D2 agonist: -3.3; Six1-Eya2 blk: 18.4

How did COc1ccc(N(CC(=O)Nc2c(C)cccc2C)S(=O)(=O)c2ccccc2[N+](=O)[O-])c(OC)c1 do in these assays?
CtBP-E1A blk: -5.1; D2 potentiator: -4.0; TRPV1 potentiator: -1.1; PINK1 expr mod: -0.4%; Sfp inh: 4.6%; D2 agonist: 1.2; Six1-Eya2 blk: -7.6

How did CCn1cc(C(=O)N[C@@H](CCSC)C(=O)NCCCn2ccnc2)c(=O)c2cc3c(cc21)OCO3 do in these assays?
CtBP-E1A blk: -4.0; D2 potentiator: -9.0; TRPV1 potentiator: -5.4; PINK1 expr mod: -0.2%; Sfp inh: 18.4%; D2 agonist: -2.7; Six1-Eya2 blk: -1.3

How did COc1ccc(-n2nc(C(=O)NCC(=O)N3CCN(c4ccccc4F)CC3)c3ccccc3c2=O)cc1OC do in these assays?
CtBP-E1A blk: 0.1; D2 potentiator: -3.5; TRPV1 potentiator: 9.5; PINK1 expr mod: 2.0%; Sfp inh: 1.9%; D2 agonist: 0.7; Six1-Eya2 blk: 7.9

Results for CS(=O)(=O)Nc1ccc(C2=NN(S(C)(=O)=O)C(c3cccs3)C2)cc1 (stereo not given) ?
CtBP-E1A blk: 10.6; D2 potentiator: -1.8; TRPV1 potentiator: 12.8; PINK1 expr mod: 0.5%; Sfp inh: -4.9%; D2 agonist: -6.6; Six1-Eya2 blk: 1.2

Results for Cc1n[nH]c(=O)nc1N1CCc2ccccc2C1 ?
CtBP-E1A blk: 17.9; D2 potentiator: -3.2; TRPV1 potentiator: 4.1; PINK1 expr mod: -2.8%; Sfp inh: 14.3%; D2 agonist: -1.4; Six1-Eya2 blk: -1.6

What do the screens show for `CC(=O)Nc1cccc(NS(=O)(=O)c2ccc3c(c2)CCC(=O)N3)c1`?
CtBP-E1A blk: -0.2; D2 potentiator: -3.4; PINK1 expr mod: 0.3%; D2 agonist: -3.6; Six1-Eya2 blk: 1.4

What do the screens show for `O=C(Cn1c(=O)oc2ccccc21)Nc1ccc(F)cc1`?
CtBP-E1A blk: 6.8; D2 potentiator: 1.0; TRPV1 potentiator: 11.3; PINK1 expr mod: 2.4%; Sfp inh: 14.7%; D2 agonist: -1.2; Six1-Eya2 blk: 1.0

How did Cc1ccccc1NC(=O)Cc1nc(COC(=O)CC(C)c2ccccc2)cs1 (stereo not given) do in these assays?
CtBP-E1A blk: 4.0; D2 potentiator: -3.3; TRPV1 potentiator: -2.4; PINK1 expr mod: 2.2%; D2 agonist: -6.9; Six1-Eya2 blk: 1.2

What do the screens show for `CN(C)CC(=O)c1ccc(-c2ccccc2)cc1`?
CtBP-E1A blk: 1.3; D2 potentiator: -24.4; TRPV1 potentiator: 28.2; PINK1 expr mod: 1.1%[38.3 µM]; Sfp inh: inconclusive; D2 agonist: -10.1; Six1-Eya2 blk: 1.6

Results for N#Cc1ccc(C(=O)N/N=C/c2cn(CC(=O)O)c3ccccc23)c(F)c1 ?
CtBP-E1A blk: -1.5; D2 potentiator: -20.4; TRPV1 potentiator: inconclusive; PINK1 expr mod: 1.4%; Sfp inh: -5.0%; D2 agonist: -5.9; Six1-Eya2 blk: -3.8

What do the screens show for `COc1ccccc1S(=O)Cc1ccc(C(=O)NCc2ccccc2Cl)o1` (stereo not given)?
CtBP-E1A blk: -8.9; D2 potentiator: -13.6; TRPV1 potentiator: -18.2; PINK1 expr mod: 0.8%; Sfp inh: inconclusive; D2 agonist: -3.9; Six1-Eya2 blk: 6.1

Results for Cc1occc1-c1nnc(SCC(=O)Nc2ccccc2)n1C ?
CtBP-E1A blk: -6.6; D2 potentiator: -5.5; TRPV1 potentiator: 27.1; PINK1 expr mod: 1.9%; Sfp inh: 12.0%; D2 agonist: -4.4; Six1-Eya2 blk: 1.1

How did Cc1cc2nc(-c3cccc(NC(=O)c4ccc(Br)o4)c3)oc2cc1C do in these assays?
CtBP-E1A blk: 9.5; D2 potentiator: -28.1; TRPV1 potentiator: 5.2; PINK1 expr mod: -1.4%; Sfp inh: inconclusive; D2 agonist: -3.3; Six1-Eya2 blk: -5.8

What do the screens show for `COc1cc(OC)cc(C(=O)Nc2cccc3cccnc23)c1`?
CtBP-E1A blk: -5.1; D2 potentiator: 1.8; TRPV1 potentiator: 27.0; PINK1 expr mod: 0.0%; Sfp inh: 0.8%; D2 agonist: 8.1; Six1-Eya2 blk: 6.6

How did COC(=O)c1sc(N2C(=O)c3oc4ccccc4c(=O)c3C2c2cccc(O)c2)nc1C (stereo not given) do in these assays?
CtBP-E1A blk: -3.7; D2 potentiator: -1.8; TRPV1 potentiator: -6.1; PINK1 expr mod: 0.2%; Sfp inh: -0.2%; D2 agonist: -2.6; Six1-Eya2 blk: -5.0

Results for COCCNC(=S)N1CCC(C(=O)c2ccc(Cl)cc2)CC1 ?
CtBP-E1A blk: -4.9; D2 potentiator: -22.0; PINK1 expr mod: -0.6%; D2 agonist: -0.5; Six1-Eya2 blk: 6.6

What do the screens show for `O=C(Cc1c(F)cccc1Cl)N1CCN(S(=O)(=O)c2cccs2)CC1`?
D2 potentiator: -8.8; TRPV1 potentiator: 2.2; PINK1 expr mod: 3.0%; D2 agonist: -2.1; Six1-Eya2 blk: 8.5

Results for CN(C(=O)COC(=O)c1ccc([N+](=O)[O-])cc1N)c1ccccc1 ?
CtBP-E1A blk: -1.5; D2 potentiator: -4.5; TRPV1 potentiator: -4.3; PINK1 expr mod: 29.9%; Sfp inh: 16.6%; D2 agonist: -6.3; Six1-Eya2 blk: 1.6

How did CC(C)CC(=O)c1c[nH]c(C(=O)NCc2ccccc2)c1 do in these assays?
CtBP-E1A blk: -0.2; D2 potentiator: -7.0; TRPV1 potentiator: -17.3; PINK1 expr mod: 3.6%; Sfp inh: 12.7%; D2 agonist: 0.8; Six1-Eya2 blk: -2.3

What do the screens show for `C=CCN1C(=O)/C(=C/c2ccc(O)c(OC)c2)S/C1=N/c1nccs1`?
CtBP-E1A blk: -15.4; D2 potentiator: 3.9; TRPV1 potentiator: -9.4; PINK1 expr mod: -2.8%; Sfp inh: 7.4%; D2 agonist: 9.7; Six1-Eya2 blk: -12.7

Results for COc1ccc(CC(=O)N/N=C(/C)CC(=O)N(C)c2ccccc2)cc1 ?
CtBP-E1A blk: 1.6; D2 potentiator: -4.3; TRPV1 potentiator: 1.1; PINK1 expr mod: -1.8%; Sfp inh: 14.2%; D2 agonist: -1.6; Six1-Eya2 blk: -3.8

Source: PubChem BioAssay (National Center for Advancing Translational Sciences (NCATS))

Outcome played no part in choosing rows. Share with any hit: about 3.7%.
